YjeE inh: YjeE (TsaE) inhibition, E. coli | P0AF67 | AID 605 | purified YjeE, fluorescence polarisation of a bound ADP probe | hit rate 0.05% among 71,000 | Potency, µM; active = well fitted falling curve; inconclusive = weaker or top-dose-only fall, or a rising curve; inactive = flat or poorly fitted curve;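 further: top concentration of the series not given in the record; excess ADP was the control for the full effect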
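Fluorescence polarization of a BODIPY Texas Red–ADP probe (2 uM) bound to purified YjeE (10 uM) was read after 15 min room-temperature incubation with compounds. Loss of polarization marks inhibitors; ADP serves as titrated control.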
PK Bst: pyruvate kinase (B. stearothermophilus) modulation. partly purified Bacillus stearothermophilus pyruvate kinase, luminescence ATP production; ribose 5-phosphate activator present at AC10. Potency, µM. hit rate 1.2% among 51,000; in the data active means potency below about 11 µM; inconclusive means mostly about 12 µM to 25 µM; inactive means weaker than that;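 the screen sought inhibitors and activators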;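 further: potency means the concentration at half of the fitted maximal effect; scaled between full activation by ribose 5 phosphate and full inhibition by luteolin; about four in five hits inhibit and the cells do not say which; series up to 57 µM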
* marks the source's active call; other numbers are inactive results; i = inactive; ? = inconclusive; nt = not tested or not shown. A portion of the library; rates above refer to the full screens.

YjeE inh | PK Bst | SMILES
i | >57 | Cc1ccc2cc(CN(Cc3cccs3)Cc3nnnn3CC3CCCO3)c(=O)[nH]c2c1C (stereo not drawn)
i | nt | Cc1cccc(OCCCCc2c(C)n[nH]c2C)c1
nt | >26 | c1ccc(-c2nnc3n2N=C(c2ccc4c(c2)OCO4)CS3)nc1
i | >57 | CCOC(=O)c1[nH]c2ccc(OC)cc2c1N=CN(C)C
i | >57 | CCN(CC)CCCn1c(=S)[nH]c2cc(Cl)ccc2c1=O
nt | >26 | CCCOc1cccc(CN2CCCCC2c2cccnc2)c1 (stereo not drawn)
i | >57 | O=c1[nH]c(NCCO)nc2c1C1(CCCCC1)Cc1ccccc1-2
i | >57 | COc1ccc(NC(=O)C2CCCCN2CC(=O)OCc2ccccc2)cc1OC (stereo not drawn)
i | >57 | COc1ccc(-c2noc(CCCC(=O)O)n2)cc1
i | nt | COc1c(C(=O)Nc2c(C)n(C)n(-c3ccccc3)c2=O)ccc2ccccc12

Next section
YjeE inh | PK Bst | SMILES
nt | >26 | O=C(CCN1CCCCC1)Nc1cccc(Cl)c1
i | >57 | CCCOc1ccc(/C(O)=C2/C(=O)C(=O)N(CCCOC)C2c2ccncc2)cc1 (stereo not drawn)
i | >57 | Cc1cc(C)nc(N2C(=O)CC(Cc3ccccc3)C2=O)n1 (stereo not drawn)
i | nt | CN(C)CCn1nnnc1SCC1=C(C(=O)O)N2C(=O)[C@@H](NC(=O)Cc3csc(N)n3)[C@@H]2SC1
i | nt | N#Cc1ccc(CN2CC3(CCN(C(=O)c4cc(C(F)(F)F)cc(C(F)(F)F)c4)CC3)C2)cc1
i | >57 | CC1CC(C)CN(c2oc(-c3ccco3)nc2C#N)C1 (stereo not drawn)
i | >57 | O=C(CSc1nnnn1C1CCCCC1)N1CCc2ccccc21
i | nt | O=C1C(C=NCc2ccco2)=C(O)c2ccccc21
i | >57 | COc1ccccc1C1(O)CCN(CC(=O)Nc2c(C)nn(C)c2C)CC1
i | >57 | O=C(Nc1nnc(-c2ccco2)s1)C1CCN(S(=O)(=O)c2ccc(Cl)cc2)CC1

Following part:
YjeE inh | PK Bst | SMILES
i | >57 | CC1=C(C(=O)Nc2ccccc2C)C(c2ccc(C)o2)N2C(=O)CSC2=N1 (stereo not drawn)
i | nt | Cn1cccc1C1NC(=O)c2c(sc3c2CCC(C(C)(C)C)C3)N1 (stereo not drawn)
i | >57 | O=C(NCC1c2ccccc2CCN1C(=O)CN1CCOCC1)C1CCCCC1 (stereo not drawn)
i | >57 | N#CC(C(=O)NCCc1ccccc1)c1nc2ccccc2nc1N1CCCCC1 (stereo not drawn)
i | >57 | COC(=O)C1CCN(C(=O)NC(C)(C)C)CC1
i | nt | COc1ccc(O)c(CN2CCN(C/C=C/c3ccccc3)CC2)c1
i | nt | Oc1c(C(Nc2nc3ccccc3s2)c2ccco2)ccc2cccnc12 (stereo not drawn)
i | >57 | CC(=O)Nc1c(C(=O)O)[nH]c2ccccc12
i | nt | COc1ccc(C(=O)Nc2nncs2)cc1S(=O)(=O)N1CC(c2ccccc2)CC1=O (stereo not drawn)
i | nt | CC(=O)Oc1cccc(N2C(=O)C3C(C2=O)C2C=CC3C23CC3)c1 (stereo not drawn)

Later entries:
YjeE inh | PK Bst | SMILES
i | nt | COc1ccc2c(c1OC)C(=O)N(c1cccc(C)c1)C2=O
i | >57 | Cc1cc(C)c2nc(SCC(=O)N3CCCCC3)c(C#N)cc2c1
i | >57 | O=C(NCCN1CCOCC1)c1ccc2c(c1)N(Cc1ccccc1F)C(=O)CS2
i | >57 | CCOC(=O)c1ccc(NC(=O)CSc2nnc(COc3ccccc3OC)n2CC)cc1
i | >57 | O=C1CC(c2cccs2)c2cc3c(cc2N1)OCO3 (stereo not drawn)
i | >57 | CCS(=O)(=O)Nc1cccc(C(=O)CC2(O)C(=O)Nc3ccccc32)c1 (stereo not drawn)
i | nt | CCOc1ccc2nc(N3CCCC(C(=O)N4CCN(CC)CC4)C3)sc2c1 (stereo not drawn)
i | nt | Cc1ccc2nc(CC(=O)c3ccc4ccccc4c3)c(=O)[nH]c2c1
i | >57 | CCOc1ccc(N2C(=O)c3cccnc3C2Nc2ccc(Cl)cc2)cc1 (stereo not drawn)
i | >57 | Cc1ccc2c(c1)C(O)(c1c(C)[nH]c3ccccc13)C(=O)N2 (stereo not drawn)

Profiles as entered above. Order of values: YjeE inh, PK Bst
COc1ccc2c(c1OC)C(=O)N(c1cccc(C)c1)C2=O is listed as i, nt
O=C1CC(c2cccs2)c2cc3c(cc2N1)OCO3 (stereo not drawn) is listed as i, >57
Cc1cc(C)c2nc(SCC(=O)N3CCCCC3)c(C#N)cc2c1 is listed as i, >57
CCOc1ccc2nc(N3CCCC(C(=O)N4CCN(CC)CC4)C3)sc2c1 (stereo not drawn) is listed as i, nt
CCOc1ccc(N2C(=O)c3cccnc3C2Nc2ccc(Cl)cc2)cc1 (stereo not drawn) is listed as i, >57

Other records follow.
YjeE inh | PK Bst | SMILES
i | nt | CCC[C@@H]1C[C@@]1(CCC)[C@@H](NP(=O)(c1ccccc1)c1ccccc1)c1ccc(C(=O)OC)cc1
i | >57 | O=C(CN1C(=O)CSC1=O)Nc1ccc(F)c(F)c1F
i | nt | CC(C)(C)c1ccc(OCC(=O)O)c(Cl)c1
i | >57 | COc1cc2ccccc2cc1C(=O)N1CCN(C)CC1
i | nt | CCOC(=O)N1CCN(C(=O)c2ccc3nc4ccsc4c(=O)n3c2)CC1
i | >57 | COC(=O)c1ccccc1NC(=O)Cn1ccnc1
i | >57 | O=C(c1cccs1)N1CCN(S(=O)(=O)N2CCCCC2)CC1
i | >57 | CCCN1C(=O)C2C(C(=O)Nc3cccc(OC)c3)C3C=CC2(O3)C1C(=O)NC1CCCCC1 (stereo not drawn)
i | nt | O=C(Nc1ccc(Cl)cc1C(=O)O)c1ccc2c(c1)C(=O)N(Cc1ccco1)C2=O
i | i | O=S(=O)(NCCSc1ccc(Cl)cc1)c1ccc2c(c1)OCCO2

Some of these compounds in order of SMILES length, falling.
YjeE inh | PK Bst | SMILES
i | nt | CCC[C@@H]1C[C@@]1(CCC)[C@@H](NP(=O)(c1ccccc1)c1ccccc1)c1ccc(C(=O)OC)cc1
i | nt | O=C(Nc1ccc(Cl)cc1C(=O)O)c1ccc2c(c1)C(=O)N(Cc1ccco1)C2=O
i | >57 | COC(=O)c1ccccc1NC(=O)Cn1ccnc1

(list continues)
YjeE inh | PK Bst | SMILES
i | nt | CN(CCO)Cc1ncccc1O
i | nt | CC1(C)O[C@H]2C[C@@H]3[C@H]4CCC5=CC(=O)CC[C@@]5(C)[C@]4(F)[C@@H](O)C[C@@]3(C)[C@@]2(C(=O)CCl)O1
i | nt | COc1nc(NC(C)(C)C)nc(Oc2ccc(=O)n(C)n2)n1
i | nt | C[C@@H]1CCC[C@H](C)N1
i | >57 | Cc1ccc(NC(=O)CSc2nnc(-c3ccc(S(=O)(=O)N4CCCC4)cc3)o2)cc1C
i | nt | CCOCCCNC(=O)c1cc(C)nn1-c1ccccc1
i | nt | COCCOC(=O)C1=C(C)OC(N)=C(C#N)C1c1ccc2c(c1)OCO2 (stereo not drawn)
i | ? | COc1cc(S(=O)(=O)N2CCC(C(N)=O)CC2)c(C)cc1C
i | >57 | COc1ccc(S(=O)(=O)N2CCN(C(=O)NC3CCCCC3)CC2)cc1OC
i | nt | c1cncc(-c2nc(NCCN3CCOCC3)c3ccccc3n2)c1

The listing continues.
YjeE inh | PK Bst | SMILES
i | >57 | Cc1onc(-c2ccccc2Cl)c1C(=O)Nc1ccc(-n2nncc2C(C)(C)C)cc1
i | ? | O=C(Nc1ccc(-c2noc(CCc3ccccc3)n2)cc1)c1ccco1
i | nt | COC(=O)c1ccc(Cl)c(NC(=O)NC2CCCCC2)c1
i | >57 | CCC(C)C(NCc1cccc(C)c1)C(=O)O (stereo not drawn)
i | nt | Cn1cccc1Cc1nnc(SCC(=O)N2CCCc3ccccc32)n1-c1ccc(F)cc1
i | >57 | CC(C)CN(CC(C)C)S(=O)(=O)N1CCC(C(=O)NCc2cccs2)CC1
i | >57 | Cc1onc(-c2ccccc2)c1C(=O)Nc1nc(-c2cc(F)ccc2F)cs1
i | >57 | CC(C)OC(=O)CN1CCN(C2c3ccccc3-c3ccccc32)CC1
i | nt | COc1ccc(CCNC(=O)CN2CCOc3ccccc32)cc1OC
i | >57 | Cn1c(=O)[nH]c(=O)c2c1nc(Br)n2CCC(=O)c1ccccc1

Remaining list, next part.
YjeE inh | PK Bst | SMILES
i | nt | S=C([S-])NCCNC(=S)[S-].[Zn+2]
nt | >11 | COc1ccc(OCC(O)Cn2c(Nc3cccc(C)c3)nc3c2c(=O)n(C)c(=O)n3C)cc1 (stereo not drawn)
i | >57 | O=S(=O)(NCc1ccccc1)c1ccc(S(=O)(=O)N2CCCCC2)cc1
i | >57 | CCOC(=O)C1CCN(C(=O)c2ccccc2N(C)S(C)(=O)=O)CC1
i | nt | O=C(COc1ccc2c3c(c(=O)oc2c1)CCC3)c1ccc2c(c1)OCO2
i | >57 | COc1cc(C2c3c(-c4cc(Cl)c(C)cc4O)n[nH]c3C(=O)N2Cc2cccnc2)ccc1O (stereo not drawn)
i | >57 | C#CCOC(=O)c1ccccc1C(=O)OCC#C
i | >57 | COc1ccc(NS(=O)(=O)c2cc(C)ccc2NC(=O)c2cc(C)oc2C)cc1
i | >57 | C/C=C(\C)c1nnc(NC(=O)C(C)C)s1
i | nt | O=C(O)CCC(=O)N1CCc2cc(S(=O)(=O)N3CCN(c4ccc(F)cc4)CC3)ccc21

Continuation:
YjeE inh | PK Bst | SMILES
i | >57 | Cc1ccc(N(CC(=O)Nc2ccc(F)cc2)S(=O)(=O)N2CCCC2)cc1
i | >57 | O=c1oc2cc(O)ccc2cc1-c1ccc(F)cc1
i | nt | O=C(O)c1cc(O)c(O)c(O)c1
i | >57 | O=C(Nc1ccc(N2CCOCC2)c(Cl)c1)c1c(F)c(F)c(F)c(F)c1F
i | nt | COc1ccc2[nH]cc(CCNc3ncncc3-c3cccc(NS(C)(=O)=O)c3)c2c1
i | nt | NC(=O)CCc1c[nH]c2ccccc12
i | >57 | COc1ccc(NC(=O)CSc2nc3ccccc3c(=O)n2CCNC(C)=O)cc1
i | >57 | CC1(C)CC(=O)C=C(NCC(=O)O)C1
i | >57 | CCCCN(C)C(=O)c1coc(=O)c2ccccc12
i | >57 | C=CCn1c(SCCCCCC)nc(O)cc1=O

(next part)
YjeE inh | PK Bst | SMILES
i | >57 | COc1cc2c(cc1OC)C(c1ccncc1)CC(=O)N2 (stereo not drawn)
nt | >11 | O=C1C2ON(c3ccccc3)C(c3ccncc3)C2C(=O)N1c1ccc(Br)cc1 (stereo not drawn)
i | >57 | O=S1(=O)CCN2C=C(Br)C=C(Br)C2=N1
nt | >26 | Cc1cc(/C=N/n2cnnc2)c(C)n1-c1ccc2c(c1)OCO2
i | >57 | COc1ccc(CCN2C(=O)CC(N3CCN(S(=O)(=O)c4ccccc4)CC3)C2=O)cc1 (stereo not drawn)
i | >57 | Cc1ccc(-c2cc(C(F)F)n3ncc(C(=O)NCc4ccco4)c3n2)cc1
i | >57 | CC(C)CNC(=O)C1CC(=O)OC12CCCCC2 (stereo not drawn)
i | >57 | CC(C)n1c(NCc2ccc(N(C)C)cc2)nc2ccccc21
i | >57 | COC(=O)c1cc(NS(=O)(=O)c2ccc(OC)c(OC)c2)ccc1Cl
i | >57 | CCCCN(C)CCCNC(=O)c1ccc(N2CCCC2=O)cc1

Following part.
YjeE inh | PK Bst | SMILES
i | >57 | COc1ccccc1NC(=O)CSc1nc2nc(C)cc(C)c2c(=O)[nH]1
i | >57 | Cc1cc(OCC(O)CN2CCN(CCO)CC2)ccc1C(C)C (stereo not drawn)
nt | >26 | COc1ccccc1C(=O)Nc1cc(Cl)ccc1O
? | >57 | COc1ccc(CCn2c(C)cc(C(=O)CSc3nnnn3-c3ccccc3)c2C)cc1OC
i | >57 | COC(=O)CSc1nnc([C@H](CC(C)C)NC(=O)OC(C)(C)C)o1
i | >57 | Cc1cc(C)cc(CSc2nnc(C)c(=O)[nH]2)c1
i | >57 | COCCNC(=O)C1CC(=O)N(C2CCCC2)C1 (stereo not drawn)
i | >57 | COc1ccc(N/C(C)=C2/C(=O)C(=O)N(CCO)C2c2ccc(Br)cc2)cc1 (stereo not drawn)
i | >57 | Cc1noc(C)c1COC(=O)c1ccc(-c2nc3ccccc3s2)s1
i | >57 | COc1ccc(-c2nnc(SCCOc3cccc(C)c3)n2N)cc1

Further results
YjeE inh | PK Bst | SMILES
i | nt | Cc1nnc(Nc2ccc3c(c2)OCO3)c2ccccc12
i | >57 | COC(=O)c1ccccc1NC(=O)CN1C(=O)CSC1=O
i | nt | CN(C)CCCNCCCN
i | 0.33* | c1ccc(-c2cn3c4c(sc3n2)CCCC4)cc1
i | >57 | CCc1ccc2c(CN3CCc4ccccc43)cc(=O)oc2c1
i | >57 | CCN(CC)CCCNC(=O)c1c(O)c2c([nH]c1=O)CCCC2
i | >57 | COc1ccc(NC(=O)c2ccc3c(c2)C(=O)N(Cc2cccnc2)C3=O)c(OC)c1
i | >57 | CCCCn1c(SCC(=O)c2cc(OC)ccc2OC)nc2cc(S(N)(=O)=O)ccc21
i | >57 | CCOc1ccc(-c2nnc(-c3snc(-c4ccc(F)cc4)c3N=CN(C)C)o2)cc1
nt | >11 | N#CC12CCCCC1CC1CCCCC1(C#N)N2Cc1cccnc1 (stereo not drawn)

Remaining list, next part:
YjeE inh | PK Bst | SMILES
i | nt | COC(=O)[C@@]1(Cc2ccc(F)cc2)[C@H]2c3cc(C(=O)N(C)C)n(Cc4cccc5ccccc45)c3C[C@H]2CN1C(=O)c1ccccc1
i | >57 | O=C(O)c1ccc(S(=O)(=O)NC2CCCCC2)cc1
i | >11 | COc1cc(-c2nnc3sc(C4CCCCC4)nn23)cc(OC)c1OC
i | >57 | CNCc1cc2ccc(C)cc2[nH]c1=O
